Cruzain noTriton: inhibitors of Trypanosoma cruzi cruzain without detergent; P25779; purified cruzain, Z-FR-AMC fluorescence, no detergent; Potency, µM, inactives show max response, negative = inhibition, usual class: inhibitors; 2.3% of 200,000 active;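 note: plate controls were enzyme without inhibitor for no effect and buffer without enzyme for full effect; nearly all actives have a fitted effect of over 40% in size; top concentration of the series not given in the record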
Target sequence (P25779 123-467 limits assumed): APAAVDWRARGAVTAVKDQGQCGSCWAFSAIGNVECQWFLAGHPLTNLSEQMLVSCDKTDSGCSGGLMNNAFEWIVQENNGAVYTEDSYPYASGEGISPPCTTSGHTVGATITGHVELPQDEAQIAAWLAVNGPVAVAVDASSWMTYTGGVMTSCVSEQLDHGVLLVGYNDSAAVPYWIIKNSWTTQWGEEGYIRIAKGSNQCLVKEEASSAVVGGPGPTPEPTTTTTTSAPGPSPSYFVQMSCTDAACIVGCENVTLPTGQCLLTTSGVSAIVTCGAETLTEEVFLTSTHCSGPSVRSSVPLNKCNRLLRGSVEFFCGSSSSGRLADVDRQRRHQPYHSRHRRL
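Purified cruzain at 1.5 nM, pre-incubated 15 min with compound at room temperature in 100 mM sodium acetate pH 5.5, 5 mM DTT, 0.00005% Triton X-100. Reaction started with 2 uM Z-FR-AMC; AMC fluorescence increase over 60 s gives rate.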
SARS PLP yeast: blocks SARS-CoV papain-like protease in a yeast assay; S. cerevisiae expressing SARS-CoV PLpro, growth rescue; control for the full effect not named in the record; Potency, µM (highest dose often 32.9 µM), without a hit: at the highest dose activity, positive = growth rescue; 0.19% of 330,000 active; AID 485353; active means well fitted rising curve with a large enough effect; inconclusive means small, poorly fitted or top-dose-only effect; inactive means no such curve, though single readings can be large or run the other way; note: 0% is about no effect; nearly all actives have a fitted effect of over 55% in size; growth read by luminescence after 48 h
NS1 inh: influenza NS1 inhibition. S. cerevisiae slowed by influenza A NS1, growth recovery by OD600. Potency, µM (highest dose often 46.1 µM), for inactives: at the highest dose activity, positive = more growth. 0.4% of 270,000 active; active means well fitted rising curve with a large enough effect; inconclusive means small, poorly fitted or top-dose-only effect; inactive means no such curve, though single readings can be large or run the other way; note: nearly all actives have a fitted effect of over 50% in size
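S. cerevisiae expressing influenza A NS1, grown in glucose, washed, then diluted 1:100 into pH 6.0 -URA galactose medium with 23 nl compound. Growth recovery read as OD600; NS1-free strain serves as control.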
StopGo reporter: FMDV 2A StopGo reporter, luciferase signal; Potency, µM (series often up to 57.9 µM), inactives show at the top dose signal change, negative = less light; 1.2% of 410,000 active; AID 1159524; human cells with a luciferase reporter of 2A StopGo recoding; control for the full effect not named in the record; active = well fitted falling curve with a large enough effect; inconclusive = small, poorly fitted or top-dose-only effect; inactive = no such curve, though single readings can be large or run the other way; tested in HEK293T cells; note: % is set by controls: 0 for no effect and ±100 for the full control effect; nearly all actives have a fitted effect of over 45% in size; luciferase light after 4 h
Cruzain Triton: blocks cruzain activity in presence of Triton detergent; 0.43% of 200,000 active; purified cruzain, Z-FR-AMC fluorescence, 0.01% Triton; Potency, µM, for the others: max response, negative = inhibition, actives largely listed as inhibitors; P25779;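 note: plate controls were neutral wells for no effect and buffer without enzyme for full effect; nearly all actives have a fitted effect of over 40% in size; top concentration of the series not given in the record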
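In this qHTS format, compounds are incubated with 1.5 nM cruzain for 15 min at room temperature before 2 uM Z-FR-AMC is added. Release of AMC is followed at 360/450 nm, and progress is taken as the 60 s fluorescence difference.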
RE007 growth inh: less growth of the S. pombe RE007 Vpr strain | S. pombe RE007 Vpr strain, BacTiter-Glo ATP luminescence, 24 h; control for the full effect not named in the record | Potency, µM (titrated, usually from 92.2 µM), inactives show top-dose activity change, negative = less growth | 0.21% of 360,000 active | AID 651644; active = well fitted falling curve with a large enough effect; inconclusive = small, poorly fitted or top-dose-only effect; inactive = no such curve, though single readings can be large or run the other way;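 note: % is set by controls: 0 for no effect and ±100 for the full control effect; nearly all actives have a fitted effect of over 50% in size; the assay follows cell death caused by Vpr and the record does not say whether a fall means rescue or toxicity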
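Fission yeast RE007 carrying one integrated HIV-1 vpr copy, seeded at OD 0.01 in PMG+AL medium with 23 nL pinned compound. Grown 24 h at 30 degrees; viability read by BacTiter-Glo luminescence after 5 min.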
Marburg entry inh: Marburg virus entry inhibition; Marburg virus pseudotyped entry inhibition, cell reporter; control for the full effect not named in the record; about a third of the inactives were read at about 46 µM; Potency, µM (titrated, usually from 37.8 µM), without a hit: top-dose activity change, negative = inhibition, usual class: inhibitors; 1.8% of 300,000 active; active = well fitted inhibition curve with a large enough effect; inconclusive = small, poorly fitted or top-dose-only effect, or effect the other way; inactive = flat fitted curve, though single readings scatter; tested in HEK293 cells; about a fifth of its hits are not listed in these tables; note: % is set by controls: 0 for no effect and ±100 for the full control effect; luciferase read-out
LASV entry inh: inhibitors of Lassa virus binding or cell entry; Lassa virus pseudotype entry inhibition, cell reporter; control for the full effect not named in the record; Potency, µM (series often up to 37.9 µM), without a hit: at the highest dose activity change, negative = inhibition, usual class: inhibitors; 1.2% of 300,000 active; active means well fitted inhibition curve with a large enough effect; inconclusive means small, poorly fitted or top-dose-only effect, or effect the other way; inactive means flat fitted curve, though single readings scatter; tested in HEK293 cells; note: % is set by controls: 0 for no effect and ±100 for the full control effect; nearly all actives have a fitted effect of over 50% in size; luciferase read-out
Active calls of the source: *; ? = inconclusive; nt = no result given; & = joins results of further samples; [ ] = another dose, or the depositor's remark. Unless noted, calls come from the whole dose curve; as a rule, active = well fitted curve in the direction sought with a large enough effect; inconclusive = small, poorly fitted or top-dose-only effect, or another doubt; inactive = no such curve, though single readings can be large; an effect the other way counts as inactive or inconclusive. Potency is the fitted concentration of half-maximal effect. This is a random part of the collection; about 4.7% have a hit in one of these screens.

Fields – Cruzain noTriton	SARS PLP yeast	NS1 inh	StopGo reporter	Cruzain Triton	RE007 growth inh	Marburg entry inh	LASV entry inh
- CCOC(=O)CCNC(=O)Nc1ccc2nc(C)n(Cc3ccccc3Cl)c(=O)c2c1
→ ?	-2%	5%	-16%	-10%	2%	-17%	?
- O=C1N/C(=N\N=C\c2cccs2)SC1Cc1cccc(Cl)c1Cl (stereo not given)
→ ?	-2%	0%	-18%	-2.2%	-8%	?	?
- Cn1ncc(Cl)c1C(=O)N1CCc2ccccc21
→ -7%	4%	-1%	-4%	3.1%	1%	0%	4%
- COc1ccc(N(Cc2cccs2)C(=O)COc2cccc(C)c2C)cc1
→ 6%	nt	nt	-23%	-8.9%	nt	?	?
- COc1ccc(OC)c(CN2CCN(S(=O)(=O)c3ccc(NC(C)=O)cc3)CC2)c1
→ nt	1%	6%	-4%	nt	14%	-17%[46.1 µM]	-14%
- Cc1ccc(N(Cc2ccccc2)C(=O)c2ccc(Cl)c(S(=O)(=O)N3CCOCC3)c2)cc1
→ nt	-3%	nt	62%[activator]	nt	-2%	?	?
- CC(=O)Nc1ccc(S(=O)(=O)N2CCN(c3cnn(C)c(=O)c3Cl)CC2)cc1
→ nt	1%	-40%	-11%	nt	-9%	-21%[46.1 µM]	4%
- CC(C)Cc1cc(C(=O)NCc2ccc(Cl)cc2)no1
→ -5%	nt	nt	36%[activator]	-2.1%	nt	11%[46.1 µM]	-2%[46.1 µM]
- CCOC(=O)c1c(Nc2cccc(C)c2)nnc(-c2ccccc2)c1-c1ccccc1
→ -23%	nt	nt	-1%	-6.6%	nt	-21%[46.1 µM]	?
- COC(=O)N1C(=O)[C@](c2ccsc2)(C(C)C)N1C(=O)OC
→ nt	-6%	-6%	?	nt	-3%	nt	nt
- Cc1cnc(C(=O)OCC(=O)Nc2ccc(Cl)cn2)cn1
→ nt	-5%	nt	-17%	nt	3%	8%[46.1 µM]	2%
- CC(NC(=O)CCc1nnc(-c2ccc(-c3ccccc3)cc2)o1)c1nc2ccccc2[nH]1 (stereo not given)
→ nt	-1%	6%	?	nt	-22%	?	?
- COC(=O)c1cc(S(=O)(=O)N(C)C2CCCCC2)oc1C
→ nt	2%	0%	-14%	nt	6%	6%	-22%
- CCC(CC)C(=O)Nc1cc(-c2nc3cccnc3s2)ccc1C
→ -2%	nt	nt	0%	-4.2%	nt	nt	21%[46.1 µM]
- O=C(CCc1c[nH]c2ccccc12)N1CCN(c2ccc(O)cc2)CC1
→ nt	0%	nt	17%	nt	-6%	?	?
- O=C(c1ccco1)N1CCN(C2CC(=O)N(c3ccc4c(c3)OCO4)C2=O)CC1 (stereo not given)
→ 2%	-5%	0%	-7%	4.6%	-5%	-10%	?
- Cc1ccc(-n2nc(C)c3nc(CCC(=O)Nc4cccc(F)c4)c(=O)n(C)c32)cc1
→ 8%	nt	nt	4%	0.5%	nt	nt	-12%[46.1 µM]
- Nc1ccc(-n2ccnc2)cc1
→ -4%	3%	-9%	-3%	3.8%	2%	29%	-2%
- O=C(COC(=O)c1ccc(F)c(S(=O)(=O)N2CCOCC2)c1)NCc1ccccc1
→ nt	9%	nt	-14%	nt	-8%	?	-14%
- O=C(CSc1nc(O)cc(=O)n1C1CCCC1)Nc1cccc(Cl)c1Cl
→ nt	0%	nt	9%	nt	-1%	2%[46.1 µM]	-13%[46.1 µM]
- Cc1ccc(C(=O)N/C(=C/c2ccc(-c3cccc([N+](=O)[O-])c3)o2)C(=O)NCCCN(C)C)cc1
→ nt	-1%	-5%	-7%	nt	-12%	?	-28%
- CCOc1ccc(-c2c(C(=O)N/N=C(\C)c3ccco3)nnn2-c2nonc2N)cc1
→ nt	-4%	-7%	?	nt	3%	nt	nt
- O=C(CSc1nc(=O)n(Cc2ccccn2)c2c1CCC2)Nc1ccc(F)cc1F
→ nt	2%	nt	4%	nt	4%	4%[46.1 µM]	-14%
- CCCCc1ncc(CN2CCC(n3nccc3NC(=O)C(OC)c3ccccc3)CC2)[nH]1 (stereo not given)
→ nt	-1%	0%	-9%	nt	14%	nt	nt
- COc1cccc(/C=N/c2nc3ccccc3n2C)c1O
→ nt	0%	-1%	30%[activator]	nt	-8%	1%	28%
- N#CCCn1cc(C(=O)Nc2ccc(C(=O)O)cc2)c(-c2ccc([N+](=O)[O-])cc2)n1
→ nt	5%	nt	-10%	nt	8%	6%[46.1 µM]	19%[46.1 µM]
- NC(=O)NC(=O)Nc1ccccc1Cl
→ 1%	-9%	-5%	23%	0.4%	-18%	10%	-15%
- NC(=O)C1CCN(C(=O)COc2ccc3c4c(c(=O)oc3c2)CCCC4)CC1
→ nt	15%	20%	-5%	nt	1%	nt	nt
- COc1ccc(N(C)S(=O)(=O)c2ccc(Cl)c(C(=O)NCCc3ccc(Cl)cc3)c2)cc1
→ nt	-1%	10%	-14%	nt	3%	?	?
- Cc1cc(F)ccc1S(=O)(=O)N1CCCCC1CCNC(=O)C(=O)NCc1ccccn1 (stereo not given)
→ nt	3%	nt	-19%	nt	-24%	?	11%[46.1 µM]

Continued:
Fields – Cruzain noTriton	SARS PLP yeast	NS1 inh	StopGo reporter	Cruzain Triton	RE007 growth inh	Marburg entry inh	LASV entry inh
- O=C(c1ccccc1F)N1CCN(Cc2ccccc2F)CC1
→ 18%	7%	6%	-12%	-2.8%	37%	-7%	-4%
- Cc1cc(C)cc(N2Cc3ccccc3C2)c1
→ 13µM*	-5%	6%	-3%	1.2%	1%	-5%	nt
- CC1(C)CC(=O)C(C#N)=C(NCCCO)C1
→ -1%	8%	4%	-8%	1.4%	-1%	7%	-8%
- COc1ccc(CCn2cc(C#N)c(=O)[nH]c2=O)cc1OC
→ nt	3%	4%	2%	nt	2%	18%[46.1 µM]	18%[46.1 µM]
- Cc1ccc(C)c(Nc2nn3c(=O)c4ccc(C(=O)NC5CCCCC5)cc4nc3s2)c1
→ -10%	nt	nt	-18%	-7.3%	nt	nt	?
- Cc1ccc(SC[C@H](c2ccccc2)N2CCN(CC(C)C)CCC2=O)cc1
→ nt	1%	7%	6%	nt	-20%	nt	nt
- C=CCn1c(SCC(=O)NCc2ccc3c(c2)OCO3)nc2scc(-c3ccccc3)c2c1=O
→ -19%	3%	-5%	-30%	-2.4%	0%	?	?
- Cc1cc(/C=C(\C#N)C(=O)NCc2ccco2)c(C)n1-c1ccc(C(=O)O)cc1
→ nt	1%	3%	-2%	nt	-4%	3%	?
- O=C(CN1C(=O)c2cccc3cccc1c23)Nc1ccc(S(=O)(=O)N2CCOCC2)cc1
→ 29%	-1%	-46%	-29%	-9.3%	-5%	-10%&2%	-10%
- COC(=O)COc1ccc(-c2nnc(Nc3ccc(O)cc3)c3ccccc23)cc1
→ -8%	nt	nt	?	-15%	nt	-5%[46.1 µM]	19%[46.1 µM]
- COc1ccc(NC(=S)N(CCCN2CCOCC2)Cc2ccco2)cc1
→ nt	3%	nt	2%	nt	-25%	28%[46.1 µM]	-1%
- O=C(Cn1ncc2c3ccccc3n(Cc3ccccc3)c2c1=O)NCCc1ccc(Cl)cc1
→ -6%	nt	nt	-25%	-1.6%	nt	11%[46.1 µM]	11%[46.1 µM]
- CC(CC(C#N)(c1ccccc1)c1ccccc1)N1CCOCC1 (stereo not given)
→ nt	nt	nt	-12%	nt	-10%	-22%[46.1 µM]	2%[46.1 µM]
- COc1cccc(NC(=O)c2oc3ccccc3c2NC(=O)C2CCCCC2)c1
→ 6%	nt	nt	?	-3.3%	nt	11%[46.1 µM]	?
- N#Cc1nc(-c2cccs2)oc1NCC1CCCO1 (stereo not given)
→ -22%	-7%	-6%	nt	-19%	-3%	-2%	14%
- Cc1ccc2c(Cl)cc(Cl)c(OCC(=O)Nc3cc(S(=O)(=O)N(C)C)ccc3C)c2n1
→ 8%	-5%	?	?	-6.4%	11%	4µM*	?
- COc1cccc(/C=C2\SC(N3CCCC(C)C3)=NC2=O)c1OC (stereo not given)
→ nt	1%	-7%	75%[activator]	nt	-3%	nt	nt
- CCN(CC)S(=O)(=O)c1ccc2oc(C(=O)NCCN3CCOCC3)c(C)c2c1
→ nt	1%	7%	-1%	nt	-7%	1%[46.1 µM]	?

Among those listed so far, eight contain a furan ring, fused or not:
Fields – Cruzain noTriton	SARS PLP yeast	NS1 inh	StopGo reporter	Cruzain Triton	RE007 growth inh	Marburg entry inh	LASV entry inh
- COC(=O)c1cc(S(=O)(=O)N(C)C2CCCCC2)oc1C
→ nt	2%	0%	-14%	nt	6%	6%	-22%
- O=C(c1ccco1)N1CCN(C2CC(=O)N(c3ccc4c(c3)OCO4)C2=O)CC1 (stereo not given)
→ 2%	-5%	0%	-7%	4.6%	-5%	-10%	?
- Cc1ccc(C(=O)N/C(=C/c2ccc(-c3cccc([N+](=O)[O-])c3)o2)C(=O)NCCCN(C)C)cc1
→ nt	-1%	-5%	-7%	nt	-12%	?	-28%
- CCOc1ccc(-c2c(C(=O)N/N=C(\C)c3ccco3)nnn2-c2nonc2N)cc1
→ nt	-4%	-7%	?	nt	3%	nt	nt
- Cc1cc(/C=C(\C#N)C(=O)NCc2ccco2)c(C)n1-c1ccc(C(=O)O)cc1
→ nt	1%	3%	-2%	nt	-4%	3%	?
- COc1ccc(NC(=S)N(CCCN2CCOCC2)Cc2ccco2)cc1
→ nt	3%	nt	2%	nt	-25%	28%[46.1 µM]	-1%
- COc1cccc(NC(=O)c2oc3ccccc3c2NC(=O)C2CCCCC2)c1
→ 6%	nt	nt	?	-3.3%	nt	11%[46.1 µM]	?
- CCN(CC)S(=O)(=O)c1ccc2oc(C(=O)NCCN3CCOCC3)c(C)c2c1
→ nt	1%	7%	-1%	nt	-7%	1%[46.1 µM]	?

Source: PubChem BioAssay
